# Vaccinia Venus: inhibitors of vaccinia virus (Venus reporter). 330,000 tested, 0.46% active. Potency, µM (series often up to 36.5 µM), for inactives: top-dose activity change, negative = inhibition, actives largely listed as inhibitors. AID 720580. Vaccinia virus Venus reporter expression, fluorescence; active means well fitted inhibition curve with a large enough effect; inconclusive means small, poorly fitted or top-dose-only effect; inactive means no such curve, though single readings can be large or run the other way; tested in A549 cells; further: nearly all actives have a fitted effect of over 30% in size; inactives centre near -10
# Vaccinia mCherry: inhibitors of vaccinia virus infection (mCherry reporter signal). Vaccinia virus mCherry reporter infection, fluorescence; about a quarter of the inactives have no number. Potency, µM (highest dose often 36.5 µM), for inactives: top-dose activity change, negative = inhibition, usual class: inhibitors. 310,000 tested, 0.63% active. AID 720579; active = well fitted inhibition curve with a large enough effect; inconclusive = small, poorly fitted or top-dose-only effect; inactive = no such curve, though single readings can be large or run the other way; tested in A549 cells; further: nearly all actives have a fitted effect of over 35% in size; inactives centre near -10
# An asterisk follows results filed as active; i = inactive; ? = inconclusive; · = no result given; & = joins results of further samples; [ ] = dose if it differs, or a comment. On the % scale 0 is the no-effect control and ±100 the full control effect; potency means the concentration at half of the fitted maximal effect.
cpd	Compound	Vaccinia Venus	Vaccinia mCherry
1	O=C(CNC(=O)c1ccc(Br)o1)Nc1cccc(-c2cnc3ccccc3n2)c1	?	-10.9%
2	Cc1ccc(C(C)C)c(OCC(=O)NNC(=O)C(C(C)C)N2C(=O)c3ccccc3C2=O)c1 (stereo not drawn)	-4.9%	-9.2%
3	CCCNCc1cc(OC)c(OCC(=O)NCCc2ccccc2)cc1Br	-27.3%	-13.1%
4	O=C(N/N=C/c1cn(-c2ccccc2)nc1-c1cc2ccccc2o1)c1cccnc1	4.8%	-0.1%
5	O=C(Nc1sc2c(c1CN1CCOCC1)CCC2)c1ccc(F)cc1	-11.2%	i
6	C=CCN1C(=O)c2ccc(C(=O)NCC(c3ccccc3)N(C)C)cc2C1=O (stereo not drawn)	3.1%	-8.1%
7	CC1=NNC(=O)C1CC(=O)N/N=C/c1sccc1C (stereo not drawn)	-4.6%[7.34 µM]	-0.9%[7.34 µM]
8	CSCCC(NC(=O)COc1ccccc1)C(=O)NC1CCC(C)CC1 (stereo not drawn)	-6.1%	-11.8%
9	Cc1ccc(S(=O)(=O)Oc2ccccc2-c2ccccc2)cc1	-24.5%	?
10	CCOc1cc(C(=O)Nc2ccc(NC(=O)c3cc4ccccc4o3)c(OC)c2)cc(OCC)c1OCC	?	?
11	O=C(Nc1nc2ccccc2[nH]1)c1ccc(Cl)c(S(=O)(=O)N2CCCC2)c1	?	-19.1%
12	Cc1ccc(Cn2c(C(C)Nc3nc(C)cs3)nc3cc(Cl)c(Cl)cc32)cc1 (stereo not drawn)	-4.5%	-12.7%
13	CC(C)(C)c1ccc(OCC(=O)NNC(=O)C2CCCO2)cc1 (stereo not drawn)	-2.8%	-3.1%
14	CCOC(=O)Cc1cc(-c2ccc(O)cc2)nc2ccc3ccccc3c12	-18.1%	-28.5%
15	COc1ccc(/C=C/C(=O)NCCCc2ccccc2)cc1	-21.4%	-3.3%
16	Cc1nn(-c2ccccc2)c(=O)c2ccccc12	-7.0%	-1.9%
17	CC(=O)Oc1ccc([C@@H]2COc3c(ccc4c3C=CC(C)(C)O4)C2)c(OC(C)=O)c1	-12.4%	-4.5%
18	C=CCC(=O)OCC(=O)Nc1ccc(Cl)cn1	?	-39.4%
19	CCC(Sc1nc(=O)cc(N)n1CCc1ccccc1)C(=O)Nc1cc(C)on1 (stereo not drawn)	9.9%	-10.6%
20	CCc1ccc(-n2c(=S)sc3c(=O)n(-c4ccccc4)c(SCC(=O)O)nc32)cc1	-2.7%	?
21	CN1CCCN(Cc2ccc(Cl)cc2Cl)CC1	-7.9%	i
22	O=C1Nc2ccc(S(=O)(=O)N3CCCC3C(=O)O)c3cccc1c23 (stereo not drawn)	5.9%	25.9%
23	CN(C)c1nc(Oc2ccc(=O)n(C)n2)nc(N2CCOCC2)n1	-1.7%	-16.8%
24	O=C1OC(CN(Cc2ccccc2)Cc2ccccc2)CN1N=Cc1ccc([N+](=O)[O-])o1 (stereo not drawn)	-4.8%	-20.6%
25	CC[C@]12c3[nH]c4ccccc4c3CCN1C(=O)C(CC(=O)NCCCn1ccnc1)C[C@@H]2C(=O)N1CCN(C(=O)c2ccco2)CC1 (stereo partly drawn)	-2.6%	-6.1%

# Compounds from the list above with an NH in an aromatic ring:
cpd	Compound	Vaccinia Venus	Vaccinia mCherry
11	O=C(Nc1nc2ccccc2[nH]1)c1ccc(Cl)c(S(=O)(=O)N2CCCC2)c1	?	-19.1%
25	CC[C@]12c3[nH]c4ccccc4c3CCN1C(=O)C(CC(=O)NCCCn1ccnc1)C[C@@H]2C(=O)N1CCN(C(=O)c2ccco2)CC1 (stereo partly drawn)	-2.6%	-6.1%

# New compounds follow.
cpd	Compound	Vaccinia Venus	Vaccinia mCherry
26	COc1cc(NC(=O)C2CCCN2S(=O)(=O)c2ccc3c(c2)CCC(=O)N3)cc(OC)c1 (stereo not drawn)	-1.7%	-0.1%
27	O=c1oc(-c2ccc([N+](=O)[O-])cc2)nc2ccccc12	-18.2%	-27.0%
28	Cc1ccc(C)c(NC(=S)N(C)CCc2ccccn2)c1	-5.9%	-13.6%
29	Cc1ccccc1-c1cc(C(=O)N/N=C/c2cccnc2)c2ccccc2n1	-7.7%	-26.6%
30	O=C(NC1CC(=O)N(c2cccc(F)c2)C1)c1cccs1 (stereo not drawn)	-1.3%	-6.7%
31	Cc1ccc(-c2csc3ncn(CC(=O)OC(C)C)c(=O)c23)cc1	-9.4%	-8.1%
32	Nc1cnc(-c2ccccc2)nc1Cl	-8.7%	i
33	CCOC(=O)C1CCN(c2ncnc3c2oc2ccccc23)CC1	-3.2%	-20.7%
34	CCOc1ccc(C2C(C(=O)c3ccco3)=C(O)C(=O)N2CCN2CCOCC2)cc1OCC (stereo not drawn)	2.7%[7.34 µM]	6.7%[7.34 µM]
35	CCOc1ccc(C(=O)CCC(=O)NNC(=O)c2ccncc2)cc1	-7.6%	-13.4%
36	O=C(Cc1ccccc1)Nn1c(-c2ccccc2F)nc2ccccc2c1=O	-0.1%	i
37	C[C@H](CO)N1C[C@H](C)[C@@H](CN(C)C(=O)Nc2ccccc2)Oc2c(NS(=O)(=O)c3ccccc3)cccc2C1=O	-16.9%	i
38	O=c1n(Cc2ccccc2)c(O)c2n1Cc1ccccc1N=C2c1ccccc1	5.8%	23.9%
39	CCc1nc2ccc(C(=O)NCc3ccc(SC)cc3)cc2nc1CC	-2.1%	-10.3%
40	O=C(CSc1nc2ccccc2nc1N1CCOCC1)Nc1ccccc1F	5.3%	6.7%
41	COCCCN1C(=O)/C(=C\c2cccs2)C(C(=O)OC)=C1C	-6.5%	?
42	COC(=O)C1C2CC3c4[nH]c5cc(OC)ccc5c4CCN3CC2CC(O)C1OC (stereo not drawn)	-6.4%	-15.8%
43	CCOC(=O)c1c(NC(=O)c2ccc(Cl)cc2)csc1C	1.3%	i
44	CC(=O)NCCC(=O)Nc1cc(S(=O)(=O)Nc2ccc(Cl)cc2)ccc1N1CCCC1	-1.9%	-6.8%
45	COc1ccccc1NS(=O)(=O)c1cc(NC(=O)c2cccs2)ccc1N1CCCCC1	-11.3%	-18.0%
46	Cc1cc(Br)c2c(c1)C(O)(N1CCCCC1C)C(=O)N2 (stereo not drawn)	-5.1%	-7.8%
47	CCOC(=O)C1CCCN(CC(=O)NC2=Nc3ccccc3N=C(C)C2c2ccccc2)C1 (stereo not drawn)	-19.1%	i
48	O=C(CSc1nc2[nH]c(=O)cc(O)c2s1)Nc1nccs1	-4.6%	-10.8%
49	Cc1ccc(CNC(=O)CCC(=O)N2CC3CCCN3c3ccccc32)cc1 (stereo not drawn)	-11.9%	i
50	O=C(CSc1nc(-c2ccccc2)nc2cc(=O)[nH]n12)Nc1ccccc1	-0.1%	-4.5%
51	NC(=O)C1(N2CCCCC2)CCN(C(=O)Nc2ccccc2C(F)(F)F)CC1	-7.0%	·
52	Cc1ccc(S(=O)(=O)NCC(=O)N(CC(=O)NCC2CCCO2)Cc2ccccc2Cl)cc1 (stereo not drawn)	-13.0%	-10.7%
53	CCC(=O)N1CCc2cc(S(=O)(=O)CCC(=O)NCCc3ccccc3)ccc21	-11.0%	-23.5%
54	O=S1(=O)N[C@H](Cc2ccccc2)COc2cc(N3CCSCC3)ccc21	2.8%	1.7%
55	Cc1cccc(NC(=O)Cn2c(=O)n(Cc3ccccc3)c(=O)c3sc4ccccc4c32)c1	?	-2.0%
56	Cc1cc2cc(C#N)c(N3CCN(S(C)(=O)=O)CC3)nc2cc1C	-11.7%	-22.8%
57	CC1CCN(C(=O)c2[nH]cnc2C(=O)Nc2cccc(Cl)c2)CC1	-19.9%	i
58	Cc1ccc(NC(=O)Cc2ccc(-n3c(C)nc4cccnc43)cc2)c(Cl)c1	?	-11.6%
59	CCn1c(SCC(=O)N2CCN(c3ccccc3)CC2)nnc1-c1ccoc1C	-21.0%	-27.8%
60	CCOC(=O)[C@]12CCCC=C1N(Cc1cccc3ccccc13)C(=O)[C@H](CC(=O)NCc1ccc(C)o1)C2	?	-15.0%
61	O=C(COC(=O)c1ccc2c(c1)OCCO2)NCCC1=CCCCC1	2.9%	·
62	Cc1nn(-c2ccccc2)c(C)c1/C=N/n1cnnc1	-1.2%	-3.4%
63	COc1ccc(-c2nnc(SCc3cc(C)cc(C)c3)o2)cc1	-7.5%	30.5%[activator]
64	O=C(CN1CCN(c2ccc(Cl)cc2)CC1)Nc1cccc(F)c1	-38.8%	·
65	CCOC(=O)C1=C(C)NC(SC)=NC1c1ccccc1 (stereo not drawn)	-12.3%	i
66	CCC(=O)NC(=S)NNC(=O)COc1ccc(Br)cc1	1.5%	-1.2%
67	O=C(O)c1cccc(Nc2nc(C(F)(F)F)nc3ccccc23)c1	-10.6%	i
68	Cc1cc(OCC(=O)Nc2ccc(CN3CCCCC3)cc2)ccc1Cl	11.6%	11.5%
69	COc1ccccc1/C=C/C(=O)NCC(=O)N/N=C(\CCC(=O)O)c1ccccc1	-20.3%	i
70	C=C(C)Cn1c(=O)c(NC(=O)c2ccccc2)c2n(c1=S)CCC2	-9.1%	-10.5%
71	COc1ccc(C)cc1NC(=O)C1CCN(S(=O)(=O)c2c(C)noc2/C=C/c2ccco2)CC1	-8.4%	-11.1%
72	COc1ccc(N2CCN(C(=O)Cn3c(=O)c4cccn4c4cccnc43)CC2)cc1	-5.1%	i
73	COc1cc(/C=N/Nc2ccccc2[N+](=O)[O-])cc(OC)c1O	-8.4%	-18.4%
74	Cc1ccc(CNC(=O)CC(C)CC2=NS(=O)(=O)c3ccccc3N2)cc1 (stereo not drawn)	-9.9%	-8.5%
75	CCC(=O)Nc1cccc2ccccc12	-4.7%	-11.8%

# (continued)
cpd	Compound	Vaccinia Venus	Vaccinia mCherry
76	CCN(C(=O)CCS(=O)(=O)c1ccc2c(c1)oc(=O)n2C)c1ccc(OC)cc1	-10.3%&-6.3%	-21.8%&-13.4%
77	COc1ccc(-c2csc(C(NC(C)=O)c3cccc(OC)c3)n2)cc1 (stereo not drawn)	-5.5%	-11.3%
78	COc1cccc(NC(=O)C2CC2(c2cccc(OC)c2)c2cccc(OC)c2)c1 (stereo not drawn)	-25.7%	?
79	O=C(Nc1ccc(Cc2ccncc2)cc1)c1ccco1	-16.0%	i
80	CCOc1cc(N2CCOCC2)c(OCC)cc1NS(=O)(=O)c1cc(NC(C)=O)ccc1OC	-8.8%	-2.2%
81	CCOC(=O)c1cnn(-c2ncnc3sc(C)c(C)c23)c1N	-10.7%	·
82	C[C@@H](C(=O)N1CCN(C(=O)OC(C)(C)C)CC1)n1cc(CCCN=C(NC(=O)OC(C)(C)C)NC(=O)OC(C)(C)C)nn1	-12.1%	i
83	CC(=O)c1sc(-c2ccccc2)cc1N	-21.1%	-4.6%
84	CCCC(=O)N1CCc2cc(OC)c(OC)cc2C1COc1ccccc1OC (stereo not drawn)	4.7%	-2.3%
85	Cc1c(O)c(S(=O)(=O)c2ccccc2)c(=O)n(-c2ccccc2)c1-c1ccccc1	-4.3%	i
86	O=C(C1CCN(S(=O)(=O)c2cnc[nH]2)CC1)N1CCn2c1nc1ccccc12	-10.5%	-9.9%
87	c1ccc(N2CCN(c3cnc4ccccc4n3)CC2)cc1	-6.7%	-2.6%
88	CCC(CC)C(=O)N(C)c1c(C)nc2c(OCC(=O)N(C)C)cccn12	-9.2%	-8.5%
89	CSc1ccc(CNC2CC2)cc1	-10.8%	-0.3%
90	O=C(CSc1nnc(-c2cccs2)o1)OC1CCCCC1	-22.5%	?
91	Cc1ccc(-n2ncc(C(=O)N3CCCCC3)c2C2CCN(C(=O)OC(C)(C)C)CC2)cc1C	-12.1%	-14.2%
92	CC(C)c1ccc2c(c1)CCC1C(C)(C(N)=O)CCCC21C (stereo not drawn)	-25.7%	-21.4%
93	Cc1cccc(NC(=O)CSc2nc3c(oc4ccccc43)c(=O)n2-c2ccccc2)c1	-21.0%	-7.7%
94	COc1ccc(OC)c(NC(=O)C(NS(=O)(=O)c2ccc3c(c2)CCCC(=O)N3)C(C)C)c1 (stereo not drawn)	2.0%	-2.2%
95	O=C(COC(=O)c1cnccn1)Nc1ccc(Cl)cc1C(F)(F)F	-5.3%	-24.9%
96	O=C(NC1(C(F)(F)F)NC(=O)N(CCc2ccccc2)C1=O)c1ccccc1Cl (stereo not drawn)	-0.2%	-6.3%
97	CCOC(=O)c1c(NC(=O)c2ccc(S(=O)(=O)N3CCCC(C)C3)cc2)sc2c1CCN(C(C)C)C2 (stereo not drawn)	?	?
98	COc1cccc(CCNC(=O)c2cnc3sc(N4CCCC4)nn3c2=O)c1	?	-29.1%
99	CC(C)(C)Nc1nc(SCC(=O)Nc2ccccc2Cl)nc(N2CCOCC2)n1	?	-24.1%
100	CCCCN(C(=O)c1ccc(NC2CC2)c([N+](=O)[O-])c1)c1c(N)n(CCCC)c(=O)[nH]c1=O	-6.5%	-12.7%
101	Cc1cc2c(c3oc(=O)c4ccccc4c13)CN(Cc1ccc(F)cc1)CO2	-20.2%	-18.6%
102	CN(C1CCCC1)C1CCN(C(=O)CNC(=O)/C=C/c2ccc(F)cc2)CC1	-25.1%	?
103	Cc1cccc(C(=O)OCC(=O)NCc2ccc(Cl)cc2)c1	-13.4%	i
104	CC1(C)Cc2c(sc3nc[nH]c(=O)c23)CO1	-12.7%	-23.0%
105	COc1ccc(C(=O)NC(c2ccc(OC)c(OC)c2)c2cc(Cl)c3cccnc3c2O)cc1 (stereo not drawn)	?	4.47µM*
106	CCCC(=O)NCCCc1nc2ccccc2[nH]1	-5.2%	-19.2%
107	CCn1c2ccccc2c2cc(/C=N/n3cnnc3)ccc21	?	-20.7%
108	Cc1ccc2nc(C)cc(SCC(=O)N/N=C/c3ccco3)c2c1	?	?
109	CCOc1cc(C2NC(=O)NC(C)=C2C(=O)OCc2ccccc2)ccc1O (stereo not drawn)	-18.3%	-8.6%

# From PubChem BioAssay
